# Assay outcomes deposited in PubChem by National Center for Advancing Translational Sciences (NCATS).
# Rango complex inh: qHTS Assay for Inhibitors of Rango (Ran-regulated importin-beta cargo) - Importin beta complex formation. Importin subunit beta-1 (Homo sapiens), Q14974. Rango CFP/YFP FRET sensor + importin beta, 45 min. Potency, µM (doses to about 92.2 µM), without a hit: top-dose inhibition of complex formation. 340,000 compounds, 0.031% hits. AID 540263, 2011; active = rising FRET ratio curve, often small or poorly fitted; inconclusive = mostly compound fluorescence or quenching in the first reads; inactive = flat curves in all reads;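 further: potency means the concentration at half of the fitted maximal effect; 0% = DMSO wells and 100% = buffer wells lacking importin beta; nearly all actives have a fitted effect of over 15% in size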
# Target sequence (Q14974 whole entry, looked up): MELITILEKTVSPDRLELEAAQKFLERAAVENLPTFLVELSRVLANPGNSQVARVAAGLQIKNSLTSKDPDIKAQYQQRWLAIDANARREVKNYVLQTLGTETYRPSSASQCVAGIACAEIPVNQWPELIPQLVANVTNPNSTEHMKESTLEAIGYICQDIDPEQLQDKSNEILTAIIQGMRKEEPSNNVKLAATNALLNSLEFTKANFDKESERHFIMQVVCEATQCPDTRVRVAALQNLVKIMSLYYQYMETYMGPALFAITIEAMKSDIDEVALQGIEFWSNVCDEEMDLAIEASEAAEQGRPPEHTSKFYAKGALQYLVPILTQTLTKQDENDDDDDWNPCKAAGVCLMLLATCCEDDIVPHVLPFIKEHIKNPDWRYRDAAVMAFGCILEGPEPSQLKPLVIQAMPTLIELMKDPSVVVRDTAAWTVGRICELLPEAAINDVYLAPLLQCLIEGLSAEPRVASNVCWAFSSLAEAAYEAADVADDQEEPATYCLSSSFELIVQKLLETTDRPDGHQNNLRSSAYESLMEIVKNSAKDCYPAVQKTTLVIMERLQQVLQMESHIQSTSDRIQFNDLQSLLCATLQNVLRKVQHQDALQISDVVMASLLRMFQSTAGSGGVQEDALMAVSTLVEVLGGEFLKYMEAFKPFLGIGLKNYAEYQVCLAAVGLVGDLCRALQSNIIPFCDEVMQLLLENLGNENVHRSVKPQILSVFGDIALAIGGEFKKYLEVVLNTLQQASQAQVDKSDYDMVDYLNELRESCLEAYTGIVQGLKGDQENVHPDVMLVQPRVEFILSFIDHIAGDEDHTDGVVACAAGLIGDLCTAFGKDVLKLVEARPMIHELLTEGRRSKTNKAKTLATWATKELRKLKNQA
#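 FRET biosensor Rango (snurportin 1 IBB between N-terminal EYFP and C-terminal Cerulean), 50 nM in PBS/1 mM DTT/0.02% Tween-20/0.1% BSA, preincubated 5 min RT with compound; 0.125 microM importin beta added, 45 min RT, CFP/YFP FRET ratio read.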
# GLA inh pH 4.5: qHTS Assay for Inhibitors of Human alpha-Galactosidase at pH 4.5. purified enzyme, 4-MU-alpha-Gal fluorescence, pH 4.5. 230,000 tested, under 10 active. activity change, negative = inhibition, % at 105 µM. AID 1467, 2008. Alpha-galactosidase A (Homo sapiens), P06280; inconclusive = small, poorly fitted or top-dose-only inhibition, or a rising curve; inactive = flat fitted curve, though single readings scatter; no compound was filed as active;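 further: 0% = full activity with enzyme and -100% = basal without enzyme; dose as in the result columns while the protocol names 77 µM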
# miR-21 FLuc: qHTS Assay for Modulators of miRNAs and/orActivators of miR-21. HeLa miR-21 FLuc reporter, luciferase, 48 h. Potency, µM (titrated, usually from 38.3 µM), for the others: top-dose reporter change, positive = more light. 340,000 tested, under 10 active. AID 2288, 2010; active = well fitted rising curve with a large enough effect; inconclusive = small, poorly fitted or top-dose-only effect; inactive = no such curve, though single readings can be large or run the other way;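 further: % of control where 0% means no effect; miR-21 action dims this reporter so a rising signal means less miR-21 action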
#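 HeLa cells stably expressing CMV-driven firefly luciferase with a downstream miR-21 binding sequence, endogenously expressing miR-21, were treated with titrations (up to about 40uM final) for 48 hours at 37 degree Celsius. Luciferase luminescence was read after lysis.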
# Rango dissoc inh: qHTS Assay for Inhibitors of RanGTP induced Rango (Ran-regulated importin-beta cargo) - Importin beta complex dissociation | 340,000 compounds, 0.071% hits | Potency, µM (doses to about 46.1 µM), for inactives: at the top dose activity change, negative = inhibition | Snurportin-1 (Homo sapiens) + GTP-binding nuclear protein Ran (Homo sapiens) + Importin … | Biochemical FRET Rango-importin beta, RanGTP-induced dissociation; active means falling FRET ratio curve, often poorly fitted, with flat reads before Ran was added; inconclusive means other falling curves, or compound fluorescence or quenching; inactive means flat or rising ratio curve;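 further: potency means the concentration at half of the fitted maximal effect; % of control where 0% means no effect; nearly all actives have a fitted effect of over 45% in size; -100% = wells without RanGTP and RCC1; the record marks most hits as doubtful in a second field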
#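 Two FRET readings bracket the reaction: one 5 min after compound meets Rango–importin beta, another 45 min after RanGTP-RCC1 (0.6 uM Ran, 0.2 uM RCC1, 2 mM GTP) is added. Only the second defines inhibition.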
# * = called active by the depositor; u = inconclusive; x = not tested or not shown; & = joins results of further samples. Only part of the results is shown; count on the stated rates, not on these rows.
# Each structure is followed by: Rango dissoc inh | miR-21 FLuc | Rango complex inh | GLA inh pH 4.5
O=C(NCc1ccc(F)cc1)c1cc(S(=O)(=O)N2CCOCC2)ccc1F
  4% | -7% | -0.3% | -2
NCCCC[C@H]1CNC(=S)N1CCc1cccc(F)c1
  10% | -4% | 2.8% | 2
CCOc1cc(CNCc2ccc(C(=O)O)cc2)ccc1OC
  -12% | 0% | -4.6% | -4
O=C(Nc1ccc(S(=O)(=O)N2CCCC2)cc1)c1ccc2c(=O)n3c(nc2c1)CCCCC3
  -5% | 0% | 7.3% | -6
Nc1nnc(SCC(=O)NC2CCCCCCC2)s1
  0% | x | -0.6% | x
COc1ccc(CNC(=O)C(=O)NCC2OCCN2S(=O)(=O)c2ccc(C)cc2)cc1 (stereo unspecified)
  11% | 0% | -0.4% | x
COc1cc(NC(=O)c2ccc(-c3cccc([N+](=O)[O-])c3)o2)ccc1NC(=O)C(C)C
  1% | -4% | -0.5% | x
COCCNC(=O)Nc1ccc(F)cc1
  -4% | 0% | -1.2% | -4
O=C(Nc1cccn2ncnc12)C(Cl)Cl
  -1% | 12% | -2.5% | -10
CCOc1ccccc1-c1nc(-c2ccc(NC(=O)Cc3ccc(OC)cc3)cc2)no1
  -1% | 1% | u | -5
COC(=O)c1ccccc1Oc1ccc(NC(=O)c2ccco2)cc1
  -6% | -22% | 0.3% | x
COc1ccc(OCC(=O)N2c3ccccc3CCc3ccccc32)cc1
  0% | 4% | -0.2% | -5
Cc1ccc(S(=O)(=O)N(C)C)cc1NC(=S)Nc1ccc2cn[nH]c2c1
  11% | 8% | 3.7% | -6
CN(C)c1ccc(/C=c2\sc3n(c2=O)CCCN=3)cc1
  u | 5% | u | -11
O=C(NCc1ccco1)c1ccccc1Nc1ccc(F)cc1
  1% | -21% | -2.3% | -18
Cc1ccc(C(=O)O)cc1NC(=S)NC(=O)c1ccc(COc2ccccc2)cc1
  -8% | -15% | -4.9% | x
COC(=O)c1c(C)[nH]c(C(=O)CN2C(=O)NC3(CCOc4ccccc43)C2=O)c1C (stereo unspecified)
  0% | x | 3.2% | x
COc1ccc(CN2CCCCC2C)cc1OC (stereo unspecified)
  15% | 1% | 7.4% | -8
CCOc1ccc(NC(=O)CSc2nnc(CCNC(=O)c3ccc(OC)cc3)n2C)cc1
  2% | -22% | 1.2% | -9
CC(C)(C)CC(=O)NC(=S)NCCc1ccccc1
  1% | -34% | 3.1% | 0
Cc1c(C=O)c2ccccn2c1C(=O)c1ccncc1
  0% | -20% | 2.8% | -3
Cc1ccc(N2C(=O)C(CN3CCCCC3)C2c2ccccc2)cc1 (stereo unspecified)
  0% | 0% | -5.4% | -3
COc1ccc(C(C2C(=O)CC(C)(C)CC2=O)C2C(=O)CC(C)(C)CC2=O)cc1CO
  -18% | 4% | -0.3% | x
CC(C)CN(C(=O)COC(=O)c1cc(=O)[nH]c2ccccc12)c1c(N)n(Cc2ccccc2)c(=O)[nH]c1=O
  -7% | x | -3.0% | x
O=C(N[C@@H](Cc1ccccc1)C(=O)OCC(=O)N1CCOCC1)c1cccs1
  6% | -2% | 3.7% | -1
COc1ccc(Cl)cc1NC(=S)NCc1ccco1
  0% | 1% | -4.2% | -3
COc1ccc(OC)c(S(=O)(=O)Nc2ccc3c(c2)n(C)c(=O)n3C)c1
  -16% | -5%&0% | u | x
c1ccc(N=Nc2cn[nH]c2-c2ccco2)cc1
  8% | -11% | 0.1% | 2
Cc1cc(NC(=S)Nc2cccnc2)ccc1Br
  1% | -4% | -2.2% | -6
Cc1nc2scc(-c3cccs3)c2c(=O)n1CC(=O)O
  7% | 0% | 4.7% | 4

# (listing goes on)
# Each structure is followed by: Rango dissoc inh | miR-21 FLuc | Rango complex inh | GLA inh pH 4.5
N#Cc1c(-c2ccccc2)oc(=O)c2ccccc12
  -14% | 2% | -2.2% | x
COc1ccccc1C(=O)N/C(=C/c1ccc2c(c1)OCO2)C(=O)Nc1ccc(C(=O)O)cc1
  2% | -1% | -1.1% | x
CC(=O)Nc1c(OC(C)=O)ccc2c(C)cc(=O)oc12
  u | -1% | -7.1% | u
Cc1cccc(N2CCN(C(=O)COc3ccc4c(c3)CCC4)CC2C)c1 (stereo unspecified)
  -10% | x | 1.9% | x
CCOC(=O)C1=C(COC(=O)c2cccc(Br)c2)NC(=O)NC1C (stereo unspecified)
  6% | x | 0.4% | x
O=C(CNc1ccc2ccccc2c1)N/N=C/c1cc2ccccc2nc1Cl
  u | -25% | u | 1
CCN1CCN(Cc2ccc(NC(=O)Nc3ccccc3OC)cc2)CC1
  u | -45% | u | -2
COc1ccc(/C(C)=N/N=C2/NC(=O)CC(C(=O)O)S2)cc1F (stereo unspecified)
  -2% | -6% | -1.8% | -1
C/C(CC(=O)Nc1ccc(Cl)c(C(F)(F)F)c1)=N\NC(=O)c1cc2ccccc2cc1O
  u | 0% | u | -10
Cc1ccccc1NC(=S)N1CCCC1
  2% | -5% | 0.5% | -12
O=C1C(=O)N(Cc2ccco2)C(c2cccs2)/C1=C(\O)c1cccc([N+](=O)[O-])c1 (stereo unspecified)
  -1% | -2% | 0.1% | 2
CCN(CC)C(=O)Cn1c(=O)n(-c2ccccc2)c(=O)n1CC(=O)N(CC)CC
  -2% | -2% | 0.1% | -6
O=C(NC1=NCCS1)c1nc(-c2ccccc2)n(-c2ccccc2)n1
  -10% | -4% | 3.6% | 2
COC(=O)[C@@]1(Cc2ccccc2)[C@H]2C(=O)N(C)C(=O)[C@H]2[C@H]2CN=C(SCc3ccc(C)cc3)N21
  -4% | x | 4.1% | x
O=S(=O)(c1cccc(-c2cn3cc(Cl)ccc3n2)c1)N1CCOCC1
  20% | -8% | -2.8% | 0
COc1ccccc1OCCC(=O)OCC(=O)Nc1cc(S(=O)(=O)N(C)C)ccc1Cl
  1% | -1% | 3.8% | 0
O=C(COC(=O)c1ccc2ccccc2n1)Nc1cccc(S(=O)(=O)NC2=NCCCCC2)c1
  -24% | -1% | 0.5% | -5
COc1ccc(CN(C)CC(=O)N2CCc3ccccc3C2)cc1
  21% | -5% | -5.8% | x
O=C(CN(C1CCCCC1)S(=O)(=O)c1ccccc1)NCc1ccco1
  -14% | -8% | -2.0% | 6
O=C(NC1CCCCC1)c1ccc(COCC(F)(F)F)o1
  15% | -6% | 3.2% | -1
Cc1cc(-c2n[nH]c(=S)n2/N=C/C(Br)=C/c2ccccc2)n[nH]1
  8% | u | -0.2% | 4
Cc1noc(C)c1-c1nc(CS(=O)(=O)c2ccccc2)no1
  -5% | -10% | 3.1% | -10
C=C(C)CSc1ncc(-c2cccc(C(F)(F)F)c2)cn1
  17% | -12% | 0.3% | 7
O/N=C/CCn1c(=S)sc2ccccc21
  1% | -15% | 3.0% | 7
O=C(CSc1nnc(-c2ccco2)n1CC1CCCO1)NC1CCCC1 (stereo unspecified)
  15% | -2% | -1.8% | -10
CCOc1cc(C(C#N)N2CCOCC2)ccc1OC (stereo unspecified)
  -13% | 2% | -0.4% | -2
Cc1ccc(NC(=O)Cn2cnc3ccccc32)cc1C
  -6% | 4% | 0.1% | -6
Cc1ccc(C)c(NC(=S)N/N=C2\CCc3ccccc32)c1
  -2% | 26% | -2.1% | 6
Cc1c(N=C2Nc3cccc4cccc2c34)c(=O)n(-c2ccccc2)n1C
  2.6µM* | -8% | u | -6
Cc1cccc(OCCn2c(-c3ccco3)nc3ccccc32)c1
  -10% | -33% | -0.5% | -1

# In the list so far, 3 have a thiophene ring, fused or not.
# Each structure is followed by: Rango dissoc inh | miR-21 FLuc | Rango complex inh | GLA inh pH 4.5
O=C(N[C@@H](Cc1ccccc1)C(=O)OCC(=O)N1CCOCC1)c1cccs1
  6% | -2% | 3.7% | -1
Cc1nc2scc(-c3cccs3)c2c(=O)n1CC(=O)O
  7% | 0% | 4.7% | 4
O=C1C(=O)N(Cc2ccco2)C(c2cccs2)/C1=C(\O)c1cccc([N+](=O)[O-])c1 (stereo unspecified)
  -1% | -2% | 0.1% | 2

# Further structures:
# Each structure is followed by: Rango dissoc inh | miR-21 FLuc | Rango complex inh | GLA inh pH 4.5
CC(NCC(=O)Nc1ccccc1C(=O)NC1CC1)c1ccc(S(C)(=O)=O)cc1 (stereo unspecified)
  -8% | x | 0.0% | x
COc1ccc(Cl)cc1NC(=O)NCc1ccco1
  -11% | -5% | -0.4% | -2
O=C(CCN1C(=O)c2ccccc2C1=O)NNC(=O)c1ccc(Cl)cc1Cl
  -20% | -2% | 0.7% | 6
CCCn1c(=O)c2ccccc2n2c(SCC(=O)N3CCc4ccccc4C3)nnc12
  7% | 1% | -0.7% | 3
COc1ccc(SCCN2CC[C@@H](C)CCC2=O)cc1
  6% | x | 0.3% | x
Cc1cc(C(=O)N/N=C/c2cn[nH]c2-c2ccccc2)cs1
  11% | -6% | 0.2% | -6
c1ccc(-n2cnnc2SCc2cn3ccsc3n2)cc1
  0% | -7% | -0.8% | 0
COC(=O)C[C@H]1c2cc(C(F)(F)F)ccc2S(=O)(=O)N1c1ccc(N(C)C)cc1
  -10% | x | u | x
COc1ccc(NC(=O)Nc2ccc3c(c2)C(=O)N([C@@H](C)CO)C[C@@H](C)[C@@H](CN(C)S(=O)(=O)c2cccs2)O3)cc1
  2% | x | -2.2% | x
CC1=CCC2C(=O)N(c3cccc(C(=O)NC(C)c4ccccc4)c3)C(=O)C2C1 (stereo unspecified)
  -10% | -4% | -2.0% | x
COc1ccccc1CNC(=O)C/C(C)=N/NC(=O)Cc1ccc(Cl)cc1
  -11% | 1% | -2.5% | x
CC(=O)C1=C(C)Nc2ncnn2C1c1ccccc1OCc1ccccc1 (stereo unspecified)
  0% | -2% | -1.5% | 11
Cc1ccc(C)c(N2CC(O)(c3cccs3)[N+]3=C2CCCC3)c1 (stereo unspecified)
  -5% | -3% | -3.4% | -5
CCOc1ccccc1C=NN=Cc1ccccc1O
  2% | x | -0.9% | x
COc1ccc(CCC(=O)NC2=NCCS2)cc1OC
  -21% | 0% | 0.6% | 2
CCOC(=O)C1=C(O)C(=O)N(Cc2cccnc2)C1c1ccc(C)cc1 (stereo unspecified)
  1% | -8% | 2.9% | -30
COc1ccc2c(c1)CCCN2C(N)=O
  -6% | -3% | 1.6% | -4
O=C(c1ccc(-n2cccn2)cc1)N1CCc2ccccc2C1
  10% | -45% | -0.5% | 4
Cc1ccc(S(=O)(=O)NC(C)(C)CSc2ccccn2)cc1
  -1% | 0% | -3.0% | 2
CC(NC(=O)CN(C)CC(=O)Nc1ccc(Cl)c(C(F)(F)F)c1)c1ccccc1 (stereo unspecified)
  3% | x | 0.6% | x
CC1CN(S(=O)(=O)c2csc(C(=O)Nc3ccccc3)c2)CC(C)O1 (stereo unspecified)
  -3% | 16% | 1.0% | x
COc1ccc(C)cc1NC(=O)CCCN1C(=O)CCC1=O
  3% | -1% | -3.4% | -1
Cc1ccn(C(C)CC(=O)Nc2ccc(-c3ccno3)cc2)n1 (stereo unspecified)
  4% | -7% | -6.0% | x
COC(=O)c1c(-c2ccccc2OC)sc2ccccc12
  11% | x | -0.3% | x
Cc1cc(C)cc(N(C(=O)c2csnn2)C(C(=O)NC(C)(C)C)c2ccncc2)c1 (stereo unspecified)
  3% | 1% | 0.2% | 3
COc1ccccc1S(=O)(=O)Cc1ccc(C(=O)NCCN2CCCCCC2)o1
  -1% | -3% | -4.7% | -1
CCCS(=O)(=O)c1ccc(COC(=O)Cc2ccc([N+](=O)[O-])cc2)cc1
  0% | 0% | 0.8% | x
O=C(O)c1ccc(/C=N/Nc2nc3ccccc3[nH]2)cc1
  -12% | -5% | -0.9% | u
CCOC(=O)CN(C)Cc1c[nH]c2ccccc12
  x | -10% | x | -3
C=CCN(c1ccccc1)S(=O)(=O)c1cccc(C(=O)OCC(=O)NC2CC2)c1
  0% | -3% | -2.8% | 1
